# Screening data from PubChem.
# Rce1 inhib = blocks yeast Ras-converting enzyme; hit rate 0.27% among 290,000; Q03530; yeast membranes, quenched prenylated peptide cleavage fluorescence; calls only; AID 2563;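 active = fall in fluorescence gain of 50% or more versus controls, with final raw signal at or below 3038400; inconclusive = same 50% fall but final raw signal above 3038400; inactive = fall in fluorescence gain under 50%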;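 note: plate controls were neutral control wells for no effect and wells lacking membranes for full effect; tested at 10 µM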
# Target sequence (Q03530 whole entry, looked up): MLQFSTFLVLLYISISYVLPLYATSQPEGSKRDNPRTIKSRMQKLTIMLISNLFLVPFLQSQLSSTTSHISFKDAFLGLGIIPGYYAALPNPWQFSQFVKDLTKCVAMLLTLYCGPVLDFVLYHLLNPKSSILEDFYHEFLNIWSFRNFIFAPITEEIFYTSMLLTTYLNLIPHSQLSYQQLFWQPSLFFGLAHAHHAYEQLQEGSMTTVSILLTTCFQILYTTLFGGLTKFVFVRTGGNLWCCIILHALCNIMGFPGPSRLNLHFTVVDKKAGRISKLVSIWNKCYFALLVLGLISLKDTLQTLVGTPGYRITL
# PABP FP inh = PABP-poly(A) binding inhibition; PABP-poly(A) RNA binding, fluorescence polarization; inhibition, % at 35 µM; hit rate 1% among 290,000; AID 2014;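 active = 50% or more with normal probe brightness, or confirmed in later tests; inconclusive = above 50% with abnormal brightness, or retests that disagree; inactive = below 50% or failed in later tests; about a fifth of its hits are not listed in these tables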;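 note: calls also rest on retests at 20 µM and on dose response follow-up; controls were probe without protein and protein plus probe with vehicle; some compounds called inactive have numbers as strong as hits; many hits fall short of the cut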
# CSC inhib = cancer stem cell inhibition. cancer stem cell-like cells viability, luminescence. hit rate 1.1% among 300,000. inhibition, % at 7.5 µM. AID 2717;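 active = mean at 75% or more and at least half the replicates too; inconclusive = mean and replicates disagree; tested in HMLE shEcad cells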;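 note: 0% = median of negative and 100% = median of positive control wells; the first replicate is given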
# MT1-MMP act inh = blocks activation of human MT1-MMP. HT1080 RFP-PRO-GFP cells, GFP/RFP ratio fluorescence, overnight; percent of plate control window, DMSO zero. P50281. hit rate 0.061% among 360,000. GFP/RFP ratio change, % at 20 µM;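 active = GFP/RFP ratio change of at least 30% with cell ATP level not reduced by more than half and red fluorescence within 50% of control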; note: strong numbers were not always called active
#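 Test system: HT1080 RFP-PRO-GFP cells; Benchmarks: DMSO and RFP-L50D-GFP cell wells; Timing: cells overnight before dosing, compound overnight, 37 °C, 5% CO2; Compound: one 20 µM compound dose with 1% DMSO; Read-out: GFP/RFP fluorescence ratio.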
# UUG fidelity = modulators of start codon recognition fidelity in yeast | S. cerevisiae UUG-firefly luciferase reporter, luminescence/redox ratio | AID 602363 | activity score, % at 18.7 µM | hit rate 0.13% among 350,000;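 active = replicate mean at a twofold rise or more, about +100% in these data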;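 note: firefly luciferase made from a UUG start codon reports start codon fidelity; reporter light over untreated wells divided by growth signal over untreated wells; some hits fall short of that in this replicate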
# HIV Env fusion = HIV envelope-mediated fusion inhibition. HeLa-JRFL Env/CEM21 cell fusion, luciferase. inhibition, % at 12.3 µM. hit rate 1.1% among 360,000;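 active = mean replicate inhibition score of at least 50 and every replicate individually at or above 50; inconclusive = only one of the two criteria met; inactive = mean below 50 and not all replicates reaching 50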;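 note: 0% = plate neutral controls and 100% = maraviroc near 300 nM; one replicate is shown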
# eIF4H inh = inhibitors of RNA binding by human eIF4H; Q15056; eIF4H fluorescence polarization binding assay; inhibition, % at 35 µM; hit rate 0.94% among 290,000;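 active = 50% or more with normal probe brightness, or confirmed in later tests; inconclusive = above 50% with abnormal brightness, or retests that disagree; inactive = below 50% or failed in later tests; about a fifth of its hits are not listed in these tables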;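 note: calls also rest on retests at 20 µM and on dose response follow-up; 0% = protein and probe with vehicle and 100% = probe without protein; strong numbers were not always called active; many hits fall short of the cut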
# eIF4H inh retest = further read-out of eIF4H inh, marked with its call; inhibition, %; compound at 20 µM; confirmation average;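 mean of two retest wells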
# PABP FP inh retest = second read-out of PABP FP inh, no call of its own (marks repeat the call); inhibition, %; compound at 20 µM; confirmation repeats;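 mean of two retest wells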
# MT1-MMP act inh RFP = also measured in MT1-MMP act inh; calls as there; RFP signal change, %; measured here: RFP expression control read;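 0 = vehicle wells; hits needed this value within 50% of zero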
# Numbers without * were called inactive; i = inactive; ? = inconclusive; . = not tested or not shown.
# The first 13 entries (preview)
SMILES,Rce1 inhib,PABP FP inh,CSC inhib,MT1-MMP act inh,MT1-MMP act inh RFP,UUG fidelity,HIV Env fusion,eIF4H inh,others
Clc1ccc(CSc2cc3c(nn2)-c2ccccc2CC3)cc1,i,-7,18,-6,-2,-11,.,-8,
CCc1nnc(NS(=O)(=O)c2ccc(N/C=C(\C=O)c3nc4cc(Cl)ccc4o3)cc2)s1,i,21,14,-29,-1,-16,16,37,
CC(C)(C)c1nc(CN2CCCCC2)cc(CN2CCCCC2)c1O,.,-6,3,6,3,-2,-5,3,
O=C(CCC(=O)N/N=C/c1ccccc1O)NCc1ccccc1,i,0,-12,8,8,-2,.,1,
COc1cccc(/C=N/Nc2nc3ccccc3n3cnnc23)c1,i,3.7*,-5,-5,-1,-3,4,85*,eIF4H inh retest=65*;PABP FP inh retest=64*
CC1CCN(C(c2ccc(N(C)C)cc2)c2nnnn2Cc2ccc(F)cc2)CC1 (stereo unspecified),i,-6,7,1,4,-4,.,-12,
COC(=O)c1ccc(C(=O)OC)c(NC2=NS(=O)(=O)c3ccccc32)c1,i,3,0,2,2,-11,-95,-4,
CCN(CC)C(=O)c1ccc(S(=O)(=O)NCc2cccnc2)cc1,i,-6,-1,-4,-9,-12,.,4,
CC(=O)c1cccc(NC(=O)CSc2nc(C3CC3)nc3ccccc23)c1,.,6,13,-5,-6,11,-10,-1,
Cn1c(C(=O)O)ccc1S(=O)(=O)N1CCCCCC1,i,4,-13,0,2,.,3,2,
CC1Cc2cc(S(=O)(=O)N3CCCCC3C)ccc2N1C(=O)C1CCC1 (stereo unspecified),i,-1,15,2,-5,-4,1,7,
S=C(Nc1ccccc1)N1CCN(c2ccccn2)CC1,i,1,-8,2,3,.,1,-4,
COC(=O)c1c(C)nc2ccccc2c1-c1ccccc1,i,2,-9,6,4,-9,-140,4,

# The list itself, repeating the preview:
SMILES,Rce1 inhib,PABP FP inh,CSC inhib,MT1-MMP act inh,MT1-MMP act inh RFP,UUG fidelity,HIV Env fusion,eIF4H inh,others
Clc1ccc(CSc2cc3c(nn2)-c2ccccc2CC3)cc1,i,-7,18,-6,-2,-11,.,-8,
CCc1nnc(NS(=O)(=O)c2ccc(N/C=C(\C=O)c3nc4cc(Cl)ccc4o3)cc2)s1,i,21,14,-29,-1,-16,16,37,
CC(C)(C)c1nc(CN2CCCCC2)cc(CN2CCCCC2)c1O,.,-6,3,6,3,-2,-5,3,
O=C(CCC(=O)N/N=C/c1ccccc1O)NCc1ccccc1,i,0,-12,8,8,-2,.,1,
COc1cccc(/C=N/Nc2nc3ccccc3n3cnnc23)c1,i,3.7*,-5,-5,-1,-3,4,85*,eIF4H inh retest=65*;PABP FP inh retest=64*
CC1CCN(C(c2ccc(N(C)C)cc2)c2nnnn2Cc2ccc(F)cc2)CC1 (stereo unspecified),i,-6,7,1,4,-4,.,-12,
COC(=O)c1ccc(C(=O)OC)c(NC2=NS(=O)(=O)c3ccccc32)c1,i,3,0,2,2,-11,-95,-4,
CCN(CC)C(=O)c1ccc(S(=O)(=O)NCc2cccnc2)cc1,i,-6,-1,-4,-9,-12,.,4,
CC(=O)c1cccc(NC(=O)CSc2nc(C3CC3)nc3ccccc23)c1,.,6,13,-5,-6,11,-10,-1,
Cn1c(C(=O)O)ccc1S(=O)(=O)N1CCCCCC1,i,4,-13,0,2,.,3,2,
CC1Cc2cc(S(=O)(=O)N3CCCCC3C)ccc2N1C(=O)C1CCC1 (stereo unspecified),i,-1,15,2,-5,-4,1,7,
S=C(Nc1ccccc1)N1CCN(c2ccccn2)CC1,i,1,-8,2,3,.,1,-4,
COC(=O)c1c(C)nc2ccccc2c1-c1ccccc1,i,2,-9,6,4,-9,-140,4,
Cc1nn(Cc2ccc([N+](=O)[O-])cc2)c(=O)n1N(C)c1ncc(C(F)(F)F)cc1Cl,i,8,4,-2,-3,-4,63*,-2,
CCN(CC)C(=S)Sc1c(-c2ccccc2)c2cc(Cl)ccc2[nH]c1=O,i,-1,-4,-1,-7,.,.,-4,
O=C(COC(=O)c1cccs1)Nc1nc(-c2ccccc2)cs1,i,-1,-3,4,7,-11,-6,-4,
Cc1ccsc1C1NC(=O)c2c(sc3c2CCCC3)N1 (stereo unspecified),i,-1,.,-2,1,-25,.,8,
CCN(CC)CC#CC(OC)(c1ccccc1)c1ccccc1,i,-2,.,-4,-2,.,17,-6,
Cc1c(N/N=C(\C#N)C(=O)c2ccccc2)c(=O)n(-c2ccccc2)n1C,i,19,.,-18,-1,-40,33,14,
OCc1c(Cl)nc2ccccn12,.,60*,-6,-1,5,.,-4,-7,eIF4H inh retest=39;PABP FP inh retest=89*

# Overlap with the part before: 2 entries, followed by the next part.
SMILES,Rce1 inhib,PABP FP inh,CSC inhib,MT1-MMP act inh,MT1-MMP act inh RFP,UUG fidelity,HIV Env fusion,eIF4H inh,others
Cc1c(N/N=C(\C#N)C(=O)c2ccccc2)c(=O)n(-c2ccccc2)n1C,i,19,.,-18,-1,-40,33,14,
OCc1c(Cl)nc2ccccn12,.,60*,-6,-1,5,.,-4,-7,eIF4H inh retest=39;PABP FP inh retest=89*
O=C(COC(=O)c1cncc(Br)c1)Nc1ccc(F)c(F)c1F,.,.,.,-1,2,2,-6,.,
COc1ccc(C2CC(c3ccccc3)=NN2C(=O)COC(=O)c2ccc(S(C)(=O)=O)cc2)cc1 (stereo unspecified),i,.,0,-15,2,-6,.,.,
COc1ccc(NC(=O)C(=O)NNC(=O)c2cccs2)c(OC)c1,i,3,-2,12,3,-9,?,5,
COc1ccc(CC(=O)Oc2ccc(C#N)cc2)cc1,i,5,-16,-3,-2,-17,-8,0,
COc1cc(OC)cc(C(=O)NNC(=O)c2cc3c(s2)CCCC3)c1,i,2,-12,-1,0,.,6,0,
Cc1cc2cc(CNC(=O)Nc3ccc(Cl)c(Cl)c3)ccc2n1C,i,.,10,46,64,14,18,.,
Cc1ccc(CNC(=O)CCc2nnc3ccc(N4CCC5(CC4)OCCO5)nn23)cc1,i,7,11,-2,1,-3,10,-2,
NNC(=O)CCn1nnc2ccccc21,i,6,-13,2,2,.,-11,2,
COCCN(C(=O)Cc1cccs1)C(C(=O)NC1CCCC1)c1ccc(OC)c(OC)c1 (stereo unspecified),i,-2,5,0,3,-11,5,7,
CCOC(=O)C(NC(C)=O)C(=O)Nc1ccc(OC)cc1 (stereo unspecified),i,6,-15,-2,-7,.,4,-5,
CCOc1ccc(NS(=O)(=O)c2ccc(-c3cnc(C4CC4)o3)cc2)cc1,i,5,-13,0,1,9,-55,-12,
CC1(C(=O)NS(=O)(=O)c2cccc(OC(F)F)c2)CCN1C(=O)c1ccccc1CCc1ccccc1 (stereo unspecified),.,.,.,2,3,-14,-17,.,
COc1ccc(OCCNc2cc(N3CCCCC3)ccc2[N+](=O)[O-])cc1,i,-2,-1,4,-8,-15,35,-6,
c1ccc(CCNCc2ccco2)nc1,.,.,.,-4,6,-23,-2,.,
O=C1CC(c2ccc(Cl)cc2)CC(O)=C1C=NCCN1CCNCC1 (stereo unspecified),i,1,-6,.,.,.,-64,-15,
Cc1ccsc1/C=N/NC(=O)c1ccc(-n2cccc2)cc1,i,-9,19,8,2,.,-14,6,
CC(=O)Nc1ccc(C2NC(=O)CCC2[N+](=O)[O-])cc1 (stereo unspecified),i,4,10,1,2,-2,5,9,
O=c1[nH]c(C2CCN(S(=O)(=O)c3ccc4c(c3)OCCO4)CC2)nc2c1nnn2Cc1ccccc1,i,3,.,0,-5,7,4,6,
O=C(Nc1cccnc1Cl)c1cccs1,i,4,-5,0,0,-11,-5,-5,
CSc1ccccc1C(=O)NCc1ccccc1C,i,-4,-5,2,3,-21,-3,-2,
CC(CN1CCOCC1)OC(=O)c1ccccc1Cl (stereo unspecified),i,5,-3,-1,2,-21,1,-1,
Cc1ccc(-c2nn(-c3ccccc3)cc2/C=C(\C#N)C(=O)NCc2ccccc2)cc1,i,-6,8,-2,-4,.,-76,0,
Cc1ccc(NS(=O)(=O)c2ccc(C(=O)N3CC(C)CC(C)C3)cc2)cc1 (stereo unspecified),i,.,-20,-10,-12,-9,.,.,
Cc1noc(C)c1COc1ccc(C(=O)NNC(=O)c2ccccc2)cc1,i,.,37,-5,-10,.,-13,.,
O=C(NCCC1=CCCCC1)C1CCCN(c2nc3ccccc3o2)C1 (stereo unspecified),i,0,.,3,-2,-17,42,4,
Cc1nn(-c2ccccc2)c2sc(C(=O)N(Cc3ccco3)C(C)C(=O)NC(C)(C)C)cc12 (stereo unspecified),i,1,4,-28,-25,-7,.,0,
C[n+]1ccc(/C=C/c2c[nH]c3ccccc23)cc1,i,71,7,-295,-20,.,12,128,eIF4H inh retest=4;PABP FP inh retest=-2
COc1ccc(-c2coc3c(C(=O)NCCN4CCOCC4)cccc23)c(C)c1,.,.,.,-3,-11,0,25,.,
O=c1[nH]c(Cc2ccc(Cl)cc2)nc2ccccc12,i,-2,-10,-3,-3,.,-10,-13,
O=C(COC(=O)c1c2c(nc3ccccc13)CCN(Cc1ccccc1)C2)Nc1c(F)cccc1F,i,14,14,-12,6,7,-23,40,
CC(Sc1ccccn1)C(=O)Nc1ccc2c(c1)OCCO2 (stereo unspecified),.,.,.,2,-1,-35,-10,.,
COc1ccc(CNC(=O)C(=O)NCC2OCCN2C(=O)c2ccc(OC)cc2)cc1 (stereo unspecified),i,-1,-12,3,10,-17,24,-11,
C=CCOc1ccc(/C(O)=C2/C(=O)C(=O)N(CCCN3CCOCC3)C2c2ccccc2)cc1 (stereo unspecified),i,.,.,7,7,-9,.,.,
OCCN(Cc1ccccc1)C(=S)Nc1ccc(Cl)cc1Cl,i,17,0,3,2,.,4,0,
COc1cccc(CNC(=O)c2ccc(C(=O)NCc3cccc(OC)c3)cc2)c1,i,4,-9,0,0,-1,-5,0,
CCCCC(=O)Nc1sc(C(=O)N(CC)CC)c(C)c1C(=O)OC,i,-11,-6,4,6,7,13,-2,
O=C(CSc1nc(-c2ccccc2)c(-c2ccccc2)o1)NC1CCS(=O)(=O)C1 (stereo unspecified),i,0,-7,3,-3,.,9,-2,
CCC(C)NC(=O)CNC(=S)N(Cc1ccccc1)Cc1cccnc1 (stereo unspecified),i,-1,-7,-1,-1,-10,13,-3,
O=C(Cn1nc(C(=O)O)c2ccccc2c1=O)Nc1cccc(Br)c1,i,-1,3,-1,-1,-10,9,1,
CC(C)c1nc(CNC(=O)C2CCC(=O)N(CCc3cccc(F)c3)C2)cs1 (stereo unspecified),i,0,-5,1,3,-3,-7,-7,
O=C(Cc1ccccc1[N+](=O)[O-])NCc1ccncc1,i,2,6,-1,2,1,-5,2,
Cc1ccc(-c2csc(NC(=O)Cn3cnc4c3c(=O)n(C)c(=O)n4C)n2)cc1C,.,-3,-6,7,-2,-28,2,-13,
Cc1nnsc1C(=O)N/N=C/c1ccc(OC(F)(F)F)cc1,i,16,-4,-1,-1,-19,19,0,
CCCP(=O)(CC(=O)N(CC)CC)c1ccccc1 (stereo unspecified),i,-6,-14,-6,0,-17,.,2,
COc1ccc(C2CC(=O)C(C=NCCN3CCNCC3)=C(O)C2)cc1OC (stereo unspecified),i,-5,.,.,.,.,.,-4,
O=S(=O)(Cc1ccccc1Cl)N1CCCCC1,i,1,6,6,10,-9,.,3,
CC(C)NC(=O)c1ccc(COc2cccc3ccccc23)o1,.,.,.,-7,-20,7,23,.,
